Compound activity: PubChem BioAssay, National Center for Advancing Translational Sciences (NCATS)
RE007 growth inh = less growth of the S. pombe RE007 Vpr strain | S. pombe RE007 Vpr strain, BacTiter-Glo ATP luminescence, 24 h; control for the full effect not named in the record | Potency, µM (top dose mostly 92.2 µM), inactives show at the top dose activity change, negative = less growth | 0.21% of 360,000 active | AID 651644; active = well fitted falling curve with a large enough effect; inconclusive = small, poorly fitted or top-dose-only effect; inactive = no such curve, though single readings can be large or run the other way;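 further: on the % scale 0 is the no-effect control and ±100 the full control effect; nearly all actives have a fitted effect of over 50% in size; the assay follows cell death caused by Vpr and the record does not say whether a fall means rescue or toxicity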
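Fission yeast strain RE007, carrying one chromosomally integrated HIV-1 vpr copy, was seeded at OD 0.01 in PMG+AL medium with 23 nL pinned compound. After 24 h at 30 °C and 99% humidity, viability was read by BacTiter-Glo luminescence.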
StopGo reporter = FMDV 2A StopGo reporter, luciferase signal. Potency, µM (top dose mostly 57.9 µM), without a hit: top-dose signal change, negative = less light. 1.2% of 410,000 active. human cells with a luciferase reporter of 2A StopGo recoding; control for the full effect not named in the record; active = well fitted falling curve with a large enough effect; inconclusive = small, poorly fitted or top-dose-only effect; inactive = no such curve, though single readings can be large or run the other way; tested in HEK293T cells; further: on the % scale 0 is the no-effect control and ±100 the full control effect; nearly all actives have a fitted effect of over 45% in size; luciferase light after 4 h
SARS PLpro yeast = blocks SARS-CoV papain-like protease in a yeast assay | Potency, µM (top dose mostly 32.9 µM), without a hit: at the highest dose activity, positive = growth rescue | 0.19% of 330,000 active | S. cerevisiae expressing SARS-CoV PLpro, growth rescue; control for the full effect not named in the record; active means well fitted rising curve with a large enough effect; inconclusive means small, poorly fitted or top-dose-only effect; inactive means no such curve, though single readings can be large or run the other way; further: 0% is about no effect; nearly all actives have a fitted effect of over 55% in size; growth read by luminescence after 48 h
* hit, by the source's call; ? = inconclusive; [ ] = remark or other dose. Potency means the concentration at half of the fitted maximal effect. This is a subset (hit frequency here may not be typical).

Screens in order: RE007 growth inh, StopGo reporter, SARS PLpro yeast
COc1ccc(C(=O)OCC(=O)NCc2cccs2)c(OC)c1OC
    1%, 5%, 5%
CCc1noc(C)c1C(=O)OCC(=O)c1ccc(OC)c(OC)c1
    -2%, -23%, -1%
O=C1[C@H]2[C@@H](C3CC3)N3C(=O)CN(CC4CC4)C(=O)[C@@]3(Cc3ccccc3)[C@H]2C(=O)N1c1ccccc1
    -4%, -9%, 10%
Cc1ccc(NC(=O)COc2cccc3ccccc23)c(O)c1
    4%, 3%, -2%
O=C(CN1c2cccc3cccc(c23)S1(=O)=O)NCc1ccc(Cl)cc1
    2%, -7%, 3%
Cc1ccccc1CSc1nc2[nH]ncc2c(=O)[nH]1
    9%, 13%, -1%
O=C(Cc1cccs1)NCc1cccc(CNC(=O)Cc2cccs2)c1
    0%, -2%, 1%
CCN(CC)C(=O)Cc1cn(C)c2ccccc12
    0%, 5%, -3%
COc1ccc(S(=O)(=O)NC(N)=NCCc2ccccc2)cc1
    2%, 10%, -2%
Cc1cn([C@H]2C[C@H](O)[C@@H](CCC(=O)NCCN3CCCCC3)O2)c(=O)[nH]c1=O
    -2%, -20%, -18%
Cc1onc(-c2ccccc2)c1C(=O)NC1CCC(C)CC1 (stereo not drawn)
    -11%, ?, -10%
O=C(COC(=O)C(Cc1ccccc1)NC(=O)c1cccs1)NCc1ccccc1 (stereo not drawn)
    0%, -11%, 4%
COc1cccc(-c2sc3ccc(OC)cc3c2-c2ccc(C(N)=O)cc2)c1
    -3%, -25%, 0%
CN(C(=O)c1cccc(NC(=O)Cc2cccc([N+](=O)[O-])c2)c1)C1CCCC1
    7%, ?, 5%
COc1ccc(C)cc1NC(=O)C(=O)NNC(=O)COc1ccc(Cl)cc1
    -24%, -18%, 3%
CN(Cc1ccccc1)C(=O)c1[nH]cnc1C(=O)Nc1ccon1
    1%, 0%, 0%
CSc1ccccc1NC(=O)CN(C)C(=O)Cc1c[nH]c2ccccc12
    -1%, 4%, 22%
CCOc1ccc(CNC(=O)CCS(=O)(=O)Cc2ccccc2C)cc1OC
    -1%, -8%, 0%
Cc1noc(C)c1NC(=O)Nc1ccc2c(c1)C(=O)N([C@H](C)CO)C[C@H](C)[C@@H](CN(C)S(=O)(=O)c1cn(C)cn1)O2
    1%, -14%, -5%
CN(C(=O)c1cccc(NC(=O)Cc2cccc([N+](=O)[O-])c2)c1)C1CCCCC1
    -18%, ?, -3%

12 entries already listed, arranged by molecular weight, falling.
Screens in order: RE007 growth inh, StopGo reporter, SARS PLpro yeast
O=C1[C@H]2[C@@H](C3CC3)N3C(=O)CN(CC4CC4)C(=O)[C@@]3(Cc3ccccc3)[C@H]2C(=O)N1c1ccccc1
    -4%, -9%, 10%
O=C(COC(=O)C(Cc1ccccc1)NC(=O)c1cccs1)NCc1ccccc1 (stereo not drawn)
    0%, -11%, 4%
CCOc1ccc(CNC(=O)CCS(=O)(=O)Cc2ccccc2C)cc1OC
    -1%, -8%, 0%
CN(C(=O)c1cccc(NC(=O)Cc2cccc([N+](=O)[O-])c2)c1)C1CCCCC1
    -18%, ?, -3%
Cc1cn([C@H]2C[C@H](O)[C@@H](CCC(=O)NCCN3CCCCC3)O2)c(=O)[nH]c1=O
    -2%, -20%, -18%
COc1cccc(-c2sc3ccc(OC)cc3c2-c2ccc(C(N)=O)cc2)c1
    -3%, -25%, 0%
O=C(CN1c2cccc3cccc(c23)S1(=O)=O)NCc1ccc(Cl)cc1
    2%, -7%, 3%
O=C(Cc1cccs1)NCc1cccc(CNC(=O)Cc2cccs2)c1
    0%, -2%, 1%
CN(C(=O)c1cccc(NC(=O)Cc2cccc([N+](=O)[O-])c2)c1)C1CCCC1
    7%, ?, 5%
CCc1noc(C)c1C(=O)OCC(=O)c1ccc(OC)c(OC)c1
    -2%, -23%, -1%
CN(Cc1ccccc1)C(=O)c1[nH]cnc1C(=O)Nc1ccon1
    1%, 0%, 0%
Cc1onc(-c2ccccc2)c1C(=O)NC1CCC(C)CC1 (stereo not drawn)
    -11%, ?, -10%

Next part:
Screens in order: RE007 growth inh, StopGo reporter, SARS PLpro yeast
O=C(CSc1nnc2ccc(-c3cccnc3)nn12)Nc1ccc(F)cc1F
    -3%, -4%, -2%
N#CCC(=O)Nc1ccc(C(=O)OCC(=O)NC(=O)Nc2ccc3c(c2)OCCO3)cc1
    4%, 49%[activator], 1%
CCOC(=O)c1c(C)[nH]c(C(C)=NNC(=O)Cn2nc(C)cc2C)c1C
    -4%, -9%, 2%
C[C@H](CO)N1C[C@H](C)[C@@H](CN(C)C(=O)Nc2ccccc2)Oc2c(NS(=O)(=O)c3cccs3)cccc2C1=O
    18%, 89%[activator], 5%
CCCS(=O)(=O)c1c(S(=O)(=O)CCC)c2ccc(C(N)=O)cn2c1C(=O)OC
    1%, -16%, 0%
CCOC(=O)C1=CC[C@@H](c2ccccc2Cl)N(S(=O)(=O)c2ccc(C)cc2)[C@H]1C(=O)OCC
    6%, -6%, -6%
COc1ccc([C@@H]2[C@@H]3C(=O)N(C(C)(C)C)C(=O)[C@@H]3[C@]3(Cc4ccc(Cl)cc4)C(=O)N(c4ccc(C)cc4)C(=O)N23)cc1
    0%, -20%, -5%
CP(=O)(O)CN1CCCCC1
    3%, -18%, 2%
O=C(O)c1ccc(CNCc2cc(Cl)ccc2O)cc1
    9%, -11%, 1%
C#CCOCCOCCOCCNc1nc(N2CCN(C(=O)[C@H]([C@@H](C)O)n3cc(CCCCN)nn3)CC2)nc(N2CCN(C(=O)[C@H](CCCCN)n3cc(CC(C)O)nn3)CC2)n1 (stereo partly drawn)
    -21%, -10%, 2%
CC(C)C(NC(=O)c1ccc(F)cc1)C(=O)NC1(C)CCS(=O)(=O)C1 (stereo not drawn)
    13%, 1%, -5%
C[C@H](NC(=O)c1ncn(C)c1C(=O)N[C@@H](C)c1ccccc1)c1ccccc1
    -5%, -4%, -7%
Cc1cc(C(=O)OCC(=O)N2CCCCCC2)ccc1[N+](=O)[O-]
    4%, -12%, -9%
O=C(NCCc1ccc(F)cc1)c1ccc2nccnc2c1
    11%, 16%, 5%
COC(=O)c1ccc(/C=C/C(=O)OCC(=O)Nc2ncc(Cl)cc2Cl)cc1
    -6%, -8%, 2%
COc1ccc(NC(=S)N2c3ccccc3CC2C)cc1OC (stereo not drawn)
    -26%, -12%, 1%
COc1ccccc1-n1c(SCC(=O)NC2CCS(=O)(=O)C2)nc2ccccc2c1=O (stereo not drawn)
    -9%, -21%, 2%
CCCc1cc(-c2nc(N)ncc2-c2csc(C)n2)c(O)cc1OC
    10%, -10%, -2%
Cc1ccc(CN(C)C(=O)c2cccc(S(=O)(=O)N3CCCC3)c2)cc1
    2%, 26%, -9%
O=C(COC(=O)c1cnccn1)NC1CCCc2ccccc21 (stereo not drawn)
    0%, -10%, -2%

(further entries)
Screens in order: RE007 growth inh, StopGo reporter, SARS PLpro yeast
COc1cc(NC(=O)C(C)N2CCN(C(=O)C3CC3)CC2)cc(OC)c1 (stereo not drawn)
    3%, -14%, -6%
COc1ccc2[nH]c3c(c2c1)CCN1C(=O)C(CC(=O)NCCN2CCOCC2)C[C@H](C(=O)N2CCCCC2)[C@@]31CCc1ccccc1 (stereo partly drawn)
    8%, -3%, 3%
c1ccc(P(c2ccccn2)c2ccccn2)cc1
    12%, -13%, 1%
CC1(C)C(=O)Nc2ccccc2N1C(=O)COC(=O)c1cccnc1Cl
    15%, -15%, -2%
CCc1ccc(C(=O)NNC(=O)[C@H](C)NC(=O)c2ccco2)cc1
    -2%, 0%, 2%
COCC(C)n1c(SCC(=O)NC(=O)Cc2ccccc2)nc2ccccc2c1=O (stereo not drawn)
    10%, -18%, 1%
Cc1cc(C)c(C(=O)COC(=O)c2nn(C)c(=O)c3ccccc23)cc1C
    -2%, -19%, -1%
Cc1cccc(C2=NOC(=O)/C2=C\c2ccccc2F)c1
    -10%, -11%, -6%
O=C(CN1C(=O)NC2(CCCC2)C1=O)NNC(=O)c1ccc(Cl)cc1
    1%, -7%, 7%
CCC(CO)Oc1cc(NC(=O)c2ccccc2N)c2ncn(C(C)C)c2c1 (stereo not drawn)
    -9%, 3%, 4%
Cc1cc(C)n2nc(SCC(=O)Nc3ccc(S(=O)(=O)N(C)C)cc3)nc2n1
    -8%, -27%, 3%
CCN(C(=N)N=C(N)N)c1ccccc1
    -2%, -16%, 0%
C=CCC[C@@H](Cc1ccc(F)cc1)C(=O)OC[C@@H](Cc1c[nH]c2ccccc12)NC(=O)[C@@H](CC=C)CC(=O)NCCO
    1%, -6%, -1%
Cc1cc(Cl)ccc1OCC(=O)NNC(=O)CCOc1ccccc1
    1%, -7%, 0%
COc1ccc(C(CNC(=O)c2ccc(OC)c(S(=O)(=O)N3CCCC3)c2)N2CCCC2)cc1 (stereo not drawn)
    -12%, 9%, -8%
NC(=O)COc1ccc(-c2noc(COc3ccccc3[N+](=O)[O-])n2)cc1
    5%, 37%[activator], 1%
CCN(CC(=O)NC1CCS(=O)(=O)C1)C(C)C(=O)Nc1ccc(F)cc1 (stereo not drawn)
    -8%, 1%, -1%
CCN(c1ccccc1)S(=O)(=O)c1ccc(Oc2ccc(C(C)=O)cc2OC)nc1
    4%, -29%, -5%
Cc1cc(C)c(NC(=O)CN(C)C(=O)C2CC(=O)N(c3cccc4ccccc34)C2)c(C)c1 (stereo not drawn)
    -3%, -4%, -4%
C=CCN1C(=O)[C@H]2CCC=C[C@H]2[C@@H]1c1cccc(C)c1
    -2%, -23%, -3%

(list continues)
Screens in order: RE007 growth inh, StopGo reporter, SARS PLpro yeast
Cc1cc(NC(=O)CN2C(=O)NC(C)(CC(C)C)C2=O)no1 (stereo not drawn)
    -6%, -10%, 4%
CCC(C)Sc1ccc([C@@H]2[C@@H]3C(=O)N(C)C(=O)[C@@H]3[C@]3(C(=O)OC)CCCCN23)cc1OC (stereo partly drawn)
    6%, -19%, 3%
COc1ccccc1NS(=O)(=O)c1cc(C(=O)N2CCCC2)ccc1C
    -2%, 15%, 1%
CCOc1cc(N2CCOCC2)c(OCC)cc1NC(=O)c1c(-c2ccccc2)noc1C
    -1%, -30%, -2%
O=C(NN1CCOCC1)c1cc(-c2ccc(Br)s2)nc2ccccc12
    -4%, -10%, 1%
Cc1ccc(C)c(NC(=O)CN(C)C(=O)c2ccc(S(=O)(=O)N(C)c3ccccc3)cc2)c1
    13%, ?, -1%
COC(=O)C1=C(c2ccc(C(C)=O)cc2)C[C@@H]2CC[C@H]1N2C(=O)N1CCCCC1
    -1%, -17%, -9%
CCc1cccc(OCC(=O)Nc2cc(Cl)ccc2-n2cncn2)c1
    3%, -8%, -11%
COC(=O)C1=C(c2ccccc2OCc2ccccc2)C[C@@H]2CC[C@H]1N2C(=O)NC1CCN(Cc2ccccc2)CC1
    -4%, -12%, -6%
COc1ccc(NC(=O)COc2ccc3c(c2)CCC3)cc1S(N)(=O)=O
    2%, -16%, 0%
CCN1C(=O)S/C(=C/c2ccc(Oc3ccc([N+](=O)[O-])cn3)c(OC)c2)C1=O
    -10%, -17%, 0%
CCN1C(=O)[C@H]2[C@@H](c3ccc(-c4ccc(F)cc4)cc3)N[C@@](CC(C)C)(C(=O)OC)[C@H]2C1=O
    -14%, 0%, 4%
Clc1cc(NCc2ccccc2)ncn1
    -4%, -3%, 10%
O=CC1=C(N2CCOCC2)/C(=C/c2ccc(Cl)cc2)CC1
    -21%, -21%, -4%
O=C(/C=C/c1ccco1)OCc1nnc(-c2ccccc2)o1
    -12%, 17%, -5%
CCCc1cc(=O)[nH]c(SCC(=O)N2CCc3ccccc3C2)n1
    3%, -3%, 0%
CN(C)CCCNC(=O)C[C@H]1C[C@H](C(=O)N2CCOCC2)[C@@]2(C)c3[nH]c4ccc(Cl)cc4c3CCN2C1=O
    9%, -19%, 1%
CCOc1ccc(NC(=O)CN(C)C(=O)/C=C/c2ccco2)cc1OCC
    -16%, -15%, -8%
CC(C)c1ccc(NC(=O)COC(=O)c2cc(=O)[nH]c3ccccc23)cc1
    10%, -2%, 2%
COc1ccc2nc(SCC(=O)c3c(N)n(C4CC4)c(=O)[nH]c3=O)[nH]c2c1
    -11%, -2%, 4%
CC[C@H](C)Cc1cn([C@@H](CCCN=C(NC(=O)OC(C)(C)C)NC(=O)OC(C)(C)C)C(=O)NCCCCCCCCCCC(=O)N2CCN(C(=O)OC(C)(C)C)CC2)nn1
    6%, -12%, 0%
